High-throughput results deposited in PubChem by several laboratories.
CSC inhib – cancer stem cell viability inhibitors, primary screen, luminescence | cancer stem cell-like cells viability | inhibition, % at 7.5 µM | 300,000 compounds, 1.1% hits;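 active = mean at 75% or more and at least half the replicates too; inconclusive = mean and replicates disagree; tested in HMLE shEcad cells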;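 also: 0% = median of negative and 100% = median of positive control wells; the first replicate is given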
MT1-MMP act inh – blockers of MT1-MMP proenzyme processing, primary screen, HT1080 RFP-PRO-GFP cells, GFP/RFP fluorescence; Matrix metalloproteinase-14 (Homo sapiens), P50281; GFP/RFP ratio change, % at 20 µM; 360,000 compounds, 0.061% hits; GFP/RFP ratio fluorescence, overnight; percent of plate control window, DMSO zero;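 active = GFP/RFP ratio change of at least 30% with cell ATP level not reduced by more than half and red fluorescence within 50% of control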; also: strong numbers were not always called active
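Compound: 20 µM single dose, 1% DMSO / System: HT1080 RFP-PRO-GFP cells / Controls: DMSO and RFP-L50D-GFP cell wells / Read-out basis: GFP/RFP fluorescence ratio / Schedule: overnight compound exposure at 37 °C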
Yeast UUG start – modulators of yeast start codon fidelity, primary screen, whole organism, S. cerevisiae, single point, plate reader. activity score, % at 18.7 µM. S. cerevisiae UUG-firefly luciferase reporter, luminescence/redox ratio. 350,000 compounds, 0.13% hits. AID 602363, 2012;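 active = replicate mean at a twofold rise or more, about +100% in these data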;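 also: firefly luciferase made from a UUG start codon reports start codon fidelity; reporter light over untreated wells divided by growth signal over untreated wells; some hits fall short of that in this replicate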
HIV Env fusion – inhibitors of HIV-1 Env-driven cell-cell fusion, primary screen, HeLa-JRFL effector, CEM21 target cells, luciferase; 360,000 compounds, 1.1% hits; inhibition, % at 12.3 µM;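 active = mean replicate inhibition score of at least 50 and every replicate individually at or above 50; inconclusive = only one of the two criteria met; inactive = mean below 50 and not all replicates reaching 50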;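 also: 0% = plate neutral controls and 100% = maraviroc near 300 nM; one replicate is shown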
Rce1 inh – yeast Rce1p protease inhibitors, primary screen, biochemical, fluorescence, cell-free homogeneous; CAAX prenyl protease 2 (Saccharomyces cerevisiae (strain ATCC 204508 / S288c)), Q03530; yeast membranes, quenched prenylated peptide cleavage fluorescence; calls only; 290,000 compounds, 0.27% hits;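 active = fall in fluorescence gain of 50% or more versus controls, with final raw signal at or below 3038400; inconclusive = same 50% fall but final raw signal above 3038400; inactive = fall in fluorescence gain under 50%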;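 also: plate controls were neutral control wells for no effect and wells lacking membranes for full effect; tested at 10 µM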
eIF4H FP inh – human eIF4H binding inhibitors, primary screen, translation initiation inhibitor project, biochemical, uHTS, fluorescence polarization. eIF4H fluorescence polarization binding assay. 290,000 compounds, 0.94% hits. Eukaryotic translation initiation factor 4H (Homo sapiens), Q15056. inhibition, % at 35 µM;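 active = 50% or more with normal probe brightness, or confirmed in later tests; inconclusive = above 50% with abnormal brightness, or retests that disagree; inactive = below 50% or failed in later tests; about a fifth of its hits are not listed in these tables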;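 also: calls also rest on retests at 20 µM and on dose response follow-up; 0% = protein and probe with vehicle and 100% = probe without protein; strong numbers were not always called active; many hits fall short of the cut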
PABP polyA inh – PABP poly(A) RNA binding inhibitors, primary screen, biochemical, fluorescence polarization, uHTS. Polyadenylate-binding protein 1 (Homo sapiens), P11940. inhibition, % at 35 µM. 290,000 compounds, 1% hits;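 active = 50% or more with normal probe brightness, or confirmed in later tests; inconclusive = above 50% with abnormal brightness, or retests that disagree; inactive = below 50% or failed in later tests; about a fifth of its hits are not listed in these tables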;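 also: calls also rest on retests at 20 µM and on dose response follow-up; controls were probe without protein and protein plus probe with vehicle; some compounds called inactive have numbers as strong as hits; many hits fall short of the cut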
Target sequence (P11940 whole entry, looked up): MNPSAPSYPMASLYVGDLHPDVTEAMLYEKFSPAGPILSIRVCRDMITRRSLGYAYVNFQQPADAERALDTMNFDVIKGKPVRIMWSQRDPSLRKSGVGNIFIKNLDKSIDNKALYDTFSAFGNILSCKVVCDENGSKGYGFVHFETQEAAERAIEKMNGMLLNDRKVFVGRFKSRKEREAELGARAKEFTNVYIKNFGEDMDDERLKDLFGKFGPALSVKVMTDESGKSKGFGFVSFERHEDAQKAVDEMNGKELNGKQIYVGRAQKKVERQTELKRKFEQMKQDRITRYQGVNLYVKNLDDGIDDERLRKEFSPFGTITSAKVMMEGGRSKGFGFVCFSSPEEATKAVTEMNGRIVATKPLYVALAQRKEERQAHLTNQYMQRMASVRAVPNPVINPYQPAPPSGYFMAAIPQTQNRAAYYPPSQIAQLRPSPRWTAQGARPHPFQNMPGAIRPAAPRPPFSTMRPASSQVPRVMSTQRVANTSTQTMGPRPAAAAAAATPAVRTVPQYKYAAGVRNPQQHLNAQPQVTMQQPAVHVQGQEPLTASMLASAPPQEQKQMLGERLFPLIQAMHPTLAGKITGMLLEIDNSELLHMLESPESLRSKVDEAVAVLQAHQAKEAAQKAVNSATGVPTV
MT1-MMP act inh RFP – further read-out of MT1-MMP act inh, marked with its call; RFP signal change, %; measured here: RFP expression control read;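 0 = vehicle wells; hits needed this value within 50% of zero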
Starred values were filed as active, the others as inactive; i = inactive; ? = inconclusive; . = not tested or not shown; + = active, no number; & = joins results of further samples.

Molecule,CSC inhib,MT1-MMP act inh,MT1-MMP act inh RFP,Yeast UUG start,HIV Env fusion,Rce1 inh,eIF4H FP inh,PABP polyA inh
Cc1ccccc1CN1C[C@@H]2C[C@@H](c3cn[nH]c3-c3ccc(F)cc3)N3CCC[C@@]23C1=O,6,2,-5,.,14,i,1,9
Cc1ccccc1OCC(=O)NC(=S)Nc1ccccc1N1CCN(S(C)(=O)=O)CC1,-3,1,-4,-9,-4,i,16,4
O=C(Oc1ccc(Oc2ccccc2)cc1)N1CCC(O)CC1,-12,-3,-5,-13,-6,i,-8,-4
O=C(CCS(=O)(=O)c1ccccc1)Nc1ccc(-c2nc3ccccc3s2)cc1,-15,6,0,.,-104,i,-6,20
Cc1c(OCc2ccc([N+](=O)[O-])cc2)ccc2c3c(c(=O)oc12)CCC3,7,9,8,-11,-47,i,-1,-8
CCOc1ccc(/C=N/NC(=O)c2c(-c3ccccc3)noc2C)cc1,-10,-4,-4,.,2,i,13,2
O=C(NCc1ccccc1Cl)c1ccc(S(=O)(=O)NCc2ccco2)cc1,.,4,1,-12,16,.,.,.
COc1ccc(C(=O)Nc2cccc3c2CCCC3)c(OC)c1,-2,-1,-3,-10,-14,i,.,.
CN(CC(=O)Nc1ccc(F)c(F)c1F)C(=O)C1CCCC1,.,-2,0,-9,-5,.,.,.
O=C(N/N=C/c1ccc(Sc2nc3ccccc3s2)c([N+](=O)[O-])c1)c1ccccn1,20,9,1,-4,.,i,-2,1
C[C@@H]1CN([C@H](C)CO)C(=O)CCCn2nncc2CO[C@H]1CN(C)S(=O)(=O)c1ccc(C#N)cc1,.,2,6,-4,2,.,.,.
O=C(N/N=C/c1ccncc1)c1cccc(NC(=O)c2ccc(Cl)cc2)c1,-1,7,5,.,30,i,-62,20
CCOc1ccc(C(=O)CCC(=O)NNC(=O)CCN2CCN(c3ccccc3)CC2)cc1,14,6,3,-3,10,.,.,.
NC(=O)C(=O)N/N=C1\CCc2ccccc21,.,0,6,-16,-44,i,6,-4
Cc1occc1C(=O)N1CCN(c2ccc([N+](=O)[O-])cc2)CC1,-4,-2,-8,4,-170,i,-5,13
NC(=O)N/N=C/c1ccc(OCc2cccc(Cl)c2)cc1,.,6,7,.,-26,i,0,-2
N=C1C(c2ccc(Br)cc2)=C(O)C2CCc3ccccc3N12 (stereo not drawn),-7,6,-2,-9,6,.,-4,2
CN(C)NC(=S)Nc1cccc(Cl)c1,-10,3,1,-19,1,i,1,3
OC(c1ccc(Cl)c(F)c1)c1ncc(-c2ccc(Oc3ccccc3)cc2)[nH]1 (stereo not drawn),.,3,-8,-15,4,.,.,.
O=C1OCc2ccc(NC(=O)C3CC3)cc21,6,-2,-4,-7,-16,i,-1,5
CN1C=CC(=O)[C@@H](OC(=O)Nc2ccc(Br)cc2)[C@H]1c1ccccc1Br,.,5,4,-24,-36,.,.,.
Cc1cccc(CSc2ccc3nnc(-c4ccccn4)n3n2)c1,-29,5,1,.,9,i,-3,-4
Cn1c(=O)n(CCc2ccccc2)c(=O)c2c1nc1n2CCCN1CCc1ccccc1,41,-8,-16,8,.,i,-7,-9
CCOC(=O)c1ccc(CSc2nnc(-c3ccncc3)n2N)cc1,-7,1,-6,8,.,i,-4,-4
O=C(O)c1ccc(N/C(=N\S(=O)(=O)c2ccc(Cl)cc2)c2ccccc2)cc1,2,3,5,-12,4,i,6,2
CCCCCC(=O)N/N=C/c1cccs1,5,1,-1,.,.,i,-7,3
Cc1cccc(C(=O)NNC2=C(C(=O)C(F)(F)F)CCC2)c1O,110*,7,-9,.,.,i,0,12
CC1CC(NC(=O)/C=C/C(=O)O)CC(C)(C)C1 (stereo not drawn),-12,-1,4,-10,1,i,-1,9
CN(C)S(=O)(=O)c1cc(NC(=O)COC(=O)/C=C/c2ccco2)ccc1Cl,-12,-5,4,.,-12,i,50,27
Cc1cc(NCc2ccccc2)n2ncc(-c3ccccc3)c2n1,48,7,4,1,-104,?,-2,-5
CCNC(=O)Nc1cc(S(=O)(=O)Nc2ccc(OC)cc2)ccc1N1CCOCC1,-13,4,-29,-6,.,.,.,.
COc1ccc(Cl)cc1-c1nc(SCC(=O)NC2CCS(=O)(=O)C2)n[nH]1 (stereo not drawn),.,-3,8,-6,6,.,.,.
CC1N=C(SCC(=O)c2ccc(F)cc2)N2C(C)N=C(SCC(=O)c3ccc(F)cc3)N12 (stereo not drawn),.,5,-2,-2,0,.,.,.
O=C(O)c1cccc(NC(=S)N/N=C/c2c[nH]c3ccccc23)c1,-1,5,5,-19,38,i,-6,38
Cc1ccc(C(=O)Cn2cnc3ccccc3c2=O)cc1,-24,0,3,8,.,i,-5,-2
COc1ccccc1Cc1nc(-c2ccc(C)cc2)no1,8,0,-1,-15,19,i,-13,-8

In the list so far, these have a nitro group on carbon.
Molecule,CSC inhib,MT1-MMP act inh,MT1-MMP act inh RFP,Yeast UUG start,HIV Env fusion,Rce1 inh,eIF4H FP inh,PABP polyA inh
Cc1c(OCc2ccc([N+](=O)[O-])cc2)ccc2c3c(c(=O)oc12)CCC3,7,9,8,-11,-47,i,-1,-8
O=C(N/N=C/c1ccc(Sc2nc3ccccc3s2)c([N+](=O)[O-])c1)c1ccccn1,20,9,1,-4,.,i,-2,1
Cc1occc1C(=O)N1CCN(c2ccc([N+](=O)[O-])cc2)CC1,-4,-2,-8,4,-170,i,-5,13

More structures follow:
Molecule,CSC inhib,MT1-MMP act inh,MT1-MMP act inh RFP,Yeast UUG start,HIV Env fusion,Rce1 inh,eIF4H FP inh,PABP polyA inh
O=C(NCCC(=O)N1CCCC1)c1ccccc1Cl,-8,-4,1,-7,-1,i,-4,7
O=C(CN1CCN(C(=O)c2ccco2)CC1)Nc1ccc(Br)cc1,3,2,-4,-13,-11,i,-12,-7
CCSc1nnc(NC(=O)CSc2nncc(=O)n2N)s1,-7,2,-5,-4,8,i,10,-18
O=C(CCCc1nc(-c2ccc(Cl)cc2)no1)NC1CCCCC1,13,-6,-24,-12,40,i,-6,7
COC(=O)c1ccc(/C=N/OCC(=O)NCCc2ccc(OC)c(OC)c2)cc1,-7,-2,-3,.,11,i,9,1
CCOc1ccc(N(CC(=O)NC2CCCC2)C(=O)CCC(=O)Nc2nc(C)cs2)cc1,-11,-1,0,-11,5,.,-15,-3
COc1ccc(NC(=O)c2ccccc2NC(=O)CSc2ccc(C)cc2)cc1,1,4,0,-11,.,i,-24,-12
CCOC(=O)c1ccccc1NC(=O)COC(=O)C(CC(C)C)NC(N)=O (stereo not drawn),3,5,6,.,-4,i,-12,11
CC(C)C(OC(=O)c1cc2c(s1)CCCCC2)C(=O)NC(N)=O (stereo not drawn),18,2,0,-19,-15,i,-6,4
CC(=O)Nc1cccc(C(=O)OCC(=O)NC(=O)NC2CCCC2)c1,.,3,-3,-5,-9,.,.,.
CC(=O)C1CCN(Cc2ccccc2)CC1,-8,-2,3,69,.,i,-2,0
O=C(C#Cc1ccccc1)c1ccco1,59,-2,-14,-10,3,i,-16,2

In the list so far, 4 have an NH in an aromatic ring:
Molecule,CSC inhib,MT1-MMP act inh,MT1-MMP act inh RFP,Yeast UUG start,HIV Env fusion,Rce1 inh,eIF4H FP inh,PABP polyA inh
Cc1ccccc1CN1C[C@@H]2C[C@@H](c3cn[nH]c3-c3ccc(F)cc3)N3CCC[C@@]23C1=O,6,2,-5,.,14,i,1,9
OC(c1ccc(Cl)c(F)c1)c1ncc(-c2ccc(Oc3ccccc3)cc2)[nH]1 (stereo not drawn),.,3,-8,-15,4,.,.,.
COc1ccc(Cl)cc1-c1nc(SCC(=O)NC2CCS(=O)(=O)C2)n[nH]1 (stereo not drawn),.,-3,8,-6,6,.,.,.
O=C(O)c1cccc(NC(=S)N/N=C/c2c[nH]c3ccccc23)c1,-1,5,5,-19,38,i,-6,38

Next section.
Molecule,CSC inhib,MT1-MMP act inh,MT1-MMP act inh RFP,Yeast UUG start,HIV Env fusion,Rce1 inh,eIF4H FP inh,PABP polyA inh
COC(=O)c1ccc(C(=O)N(Cc2ccccc2)c2ccccc2)cc1,-2,1,1,-4,-11,i,-11,-10
CCOC(=O)N1CCN(c2nc3ccccn3c(=O)c2C=O)CC1,-4,-1,1,-6,-8,i,6,-1
COc1cc(/C=N/Nc2ccc(C(=O)O)cc2)ccc1O,10,2,4,.,5,i,35,8
O=[N+]([O-])c1ccc(-c2nnc3n2CCCCC3)cc1,-10,0,-2,-19,5,i,3,-2
CCOc1ccccc1CN1CCN(S(=O)(=O)CC)CC1,-17,0,-5,-17,.,i,-8,5
CC1(CCc2ccccc2)NC(=O)N(Cc2cc([N+](=O)[O-])cc3c2OCOC3)C1=O (stereo not drawn),-7,-2,-1,-8,29,i,-7,-3
c1ccc(-c2csc(Nc3cccnc3)n2)cc1,-11,-4,1,.,-85,i,-4,-4
COc1ccc(N2CCN(C(=O)c3ccc(-c4nc5ccccc5s4)o3)CC2)cc1,-2,-4,-5,-12,-14,.,.,.
COc1ccccc1C1(O)CC2CCC(C1)N2S(=O)(=O)c1ccc(C(C)=O)cc1 (stereo not drawn),-7,10,9,.,.,i,12,-7
Cc1sc2nc(C(C)C)nc(SCC(=O)N3c4ccccc4CC3C)c2c1C (stereo not drawn),31,-3,-2,3,.,i,3,-3
NS(=O)(=O)c1ccc(CCNc2nn3c(-c4ccc(F)c(Cl)c4)cnc3s2)cc1,.,1,-11,-19,22,.,.,.
CCN(CC)c1ccc(/C=N/NC(=O)C(O)(c2ccccc2)c2ccccc2)o1,0,.,.,.,.,+,0,-3
C[C@H](CO)N1C[C@H](C)[C@@H](CN(C)S(=O)(=O)c2ccccc2)Oc2c(NC(=O)C3CCCCC3)cccc2C1=O,-28,-4,-3,9&-13,-24,.,.,.
O=C(NCc1ccccc1)C1=C[C@@H](C2CCCCC2)C[C@@H](OCCCCO)O1,0,3,-3,0,0,i,.,.
O=C(CSC1=N/C(=C/c2ccco2)C(=O)N1c1ccc(OC(F)F)cc1)NC1CCS(=O)(=O)C1 (stereo not drawn),-10,0,5,.,-10,i,29,12
N#Cc1cccc(C(c2nnnn2CCc2ccccc2)N2CCN(C3CCCCC3)CC2)c1 (stereo not drawn),19,1,0,8,.,i,1,6
O=C(CCCn1c(SCC(=O)c2ccc(Cl)cc2)nc2ccccc2c1=O)NCc1ccco1,0,3,1,-23,-280,i,-8,-3
COc1ccc(CNC2c3ccccc3-c3ccccc32)cc1OC,6,-3,-1,-5,28,i,-13,5
CC1CCc2[nH]c3ccc(C(=O)N(C)CC(=O)Nc4ccccc4C(F)(F)F)cc3c2C1 (stereo not drawn),.,2,0,-4,3,i,.,.

An excerpt (hit frequency here may not be typical).
